From PubChem
2A StopGo = FMDV 2A StopGo reporter, luciferase signal; AID 1159524; Potency, µM (doses to about 57.9 µM), for the others: at the top dose signal change, negative = less light; actives 1.2% (n = 410,000); human cells with a luciferase reporter of 2A StopGo recoding; control for the full effect not named in the record; active = well fitted falling curve with a large enough effect; inconclusive = small, poorly fitted or top-dose-only effect; inactive = no such curve, though single readings can be large or run the other way; tested in HEK293T cells; note: nearly all actives have a fitted effect of over 45% in size; luciferase light after 4 h
RE007 growth inh = less growth of the S. pombe RE007 Vpr strain; S. pombe RE007 Vpr strain, BacTiter-Glo ATP luminescence, 24 h; control for the full effect not named in the record; Potency, µM (doses to about 92.2 µM), without a hit: at the highest dose activity change, negative = less growth; actives 0.21% (n = 360,000); active = well fitted falling curve with a large enough effect; inconclusive = small, poorly fitted or top-dose-only effect; inactive = no such curve, though single readings can be large or run the other way;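 note: nearly all actives have a fitted effect of over 50% in size; the assay follows cell death caused by Vpr and the record does not say whether a fall means rescue or toxicity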
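Fission yeast RE007 carrying one integrated HIV-1 vpr copy, seeded at OD 0.01 in PMG+AL medium with 23 nL pinned compound. Grown 24 h at 30 degrees; viability read by BacTiter-Glo luminescence after 5 min.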
The depositor's hits bear a star; ? = inconclusive; & = joins results of further samples; [ ] = dose if it differs, or a comment. % is set by controls: 0 for no effect and ±100 for the full control effect; potency is the fitted concentration of half-maximal effect. Only part of the results is shown. The share of hits here may be higher or lower than overall.

SMILES	2A StopGo	RE007 growth inh
O=S(=O)(Nc1nc(-c2ccco2)c(-c2ccco2)s1)c1ccc(F)cc1F	-23%	-10%
COc1ccc(OC)c(CN2C(=O)CSCC2(C)C(=O)Nc2c(C)cccc2C)c1 (stereo not drawn)	0%	-4%
O=C(c1ccccc1F)N1N=C(C(F)(F)F)CC1(O)c1ccccc1 (stereo not drawn)	7%	-5%
NC(COCc1ccccc1)c1csc(NC(=O)Nc2cccc(Cl)c2)n1 (stereo not drawn)	-14%	14%
C=C1C2C[C@@]3([C@@H]1O)[C@@H](C[C@@H]2O)[C@@]12C4[C@@H]3C[C@@H]1[C@@](C)(CC[C@@H]2O)CN4CC	-23%	2%
CC1(C(=O)NS(=O)(=O)c2cccc(Cl)c2)CCN1C(=O)C1CCCCC1 (stereo not drawn)	-8%	24%
COc1cc(C(O)c2nc(/C=C/c3ccccc3)cs2)ccc1F (stereo not drawn)	-20%	2%
CC(NC(=O)COC(=O)C1CCN(c2ccc(C(F)(F)F)cn2)CC1)c1ccccc1 (stereo not drawn)	-8%	-5%
CCOC(=O)C1CCCN(C(=O)c2oc3ccccc3c2C)CC1 (stereo not drawn)	-16%	-15%
CCOC(=O)CC[C@H](NC(=O)Cn1cc(C)c(=O)[nH]c1=O)C(=O)OCC	-8%	2%
CCOc1ccc(OCC)c(NC(=O)C2C3C=CC(O3)C2C(=O)O)c1 (stereo not drawn)	-5%	-4%
CCNC(=O)C1(C)CCN(Cc2ccc(OC(F)(F)F)cc2)C1 (stereo not drawn)	-19%	-1%
COc1cc2c(c(OC)c1CC=C(C)C)C[C@H](c1ccc(O)cc1O)CO2	1%	?
Cc1ccc(NC(=O)c2cc(S(=O)(=O)N3CCCCC3)ccc2N2CCOCC2)c(C)c1	15%	-6%
C[C@H]1COc2cc(N3CCN(Cc4ccccc4F)CC3)ccc2S(=O)(=O)N1	-24%	-22%
NC(=O)c1ncn([C@@H]2O[C@H](CNCc3cccc4c3sc3ccccc34)[C@@H](O)[C@H]2O)n1	-20%	-13%
CN1CCN(C2CN(Cc3ccc(F)cc3)S(=O)(=O)C2)CC1 (stereo not drawn)	-18%	-8%
CC(=O)Nc1c([N+](=O)[O-])cc2c3c(cccc13)CC2	1%	-5%
CCCNC(=O)C1(C)CCN1C(=O)Cc1ccc(C(C)C)cc1 (stereo not drawn)	1%	4%
COc1ccc(C2CC=C(C(C)=O)CN2S(=O)(=O)c2ccc(Cl)cc2)cc1 (stereo not drawn)	-7%&-1%	-3%&16%

Random excerpt: 2 records from the list, in no set order.
SMILES	2A StopGo	RE007 growth inh
CCNC(=O)C1(C)CCN(Cc2ccc(OC(F)(F)F)cc2)C1 (stereo not drawn)	-19%	-1%
CN1CCN(C2CN(Cc3ccc(F)cc3)S(=O)(=O)C2)CC1 (stereo not drawn)	-18%	-8%

Grouped by structure, the compounds so far containing a halogen.
SMILES	2A StopGo	RE007 growth inh
O=S(=O)(Nc1nc(-c2ccco2)c(-c2ccco2)s1)c1ccc(F)cc1F	-23%	-10%
O=C(c1ccccc1F)N1N=C(C(F)(F)F)CC1(O)c1ccccc1 (stereo not drawn)	7%	-5%
NC(COCc1ccccc1)c1csc(NC(=O)Nc2cccc(Cl)c2)n1 (stereo not drawn)	-14%	14%
CC1(C(=O)NS(=O)(=O)c2cccc(Cl)c2)CCN1C(=O)C1CCCCC1 (stereo not drawn)	-8%	24%
COc1cc(C(O)c2nc(/C=C/c3ccccc3)cs2)ccc1F (stereo not drawn)	-20%	2%
CC(NC(=O)COC(=O)C1CCN(c2ccc(C(F)(F)F)cn2)CC1)c1ccccc1 (stereo not drawn)	-8%	-5%
CCNC(=O)C1(C)CCN(Cc2ccc(OC(F)(F)F)cc2)C1 (stereo not drawn)	-19%	-1%
C[C@H]1COc2cc(N3CCN(Cc4ccccc4F)CC3)ccc2S(=O)(=O)N1	-24%	-22%
CN1CCN(C2CN(Cc3ccc(F)cc3)S(=O)(=O)C2)CC1 (stereo not drawn)	-18%	-8%
COc1ccc(C2CC=C(C(C)=O)CN2S(=O)(=O)c2ccc(Cl)cc2)cc1 (stereo not drawn)	-7%&-1%	-3%&16%

Next results follow:
SMILES	2A StopGo	RE007 growth inh
Cc1ccc2oc3ccccc3c(=O)c2c1	52%[activator]	-1%
CC1(Cc2ccc(Cl)cc2)C(=O)Nc2ccc(S(=O)(=O)NC3CCCCC3)cc21 (stereo not drawn)	5%	1%
CC1(C(=O)NS(=O)(=O)c2ccc(F)cc2F)CCN1C(=O)c1ccccc1 (stereo not drawn)	-20%	-1%
COc1cc(-c2nnc3sc(Cc4ccc(Cl)cc4)nn23)cc(OC)c1OC	-27%	-5%
CN(Cc1cnn(-c2ccc(F)cc2)c1)C(=O)[C@H]1O[C@@H](n2cnc3c(N)ncnc32)[C@H](O)[C@@H]1O	-16%	-5%
CSCCC(c1nnnn1C1CCCCC1)N1CCC2(CC1)C(=O)NCN2c1ccccc1 (stereo not drawn)	-19%	5%
C(=Nn1cnnc1)c1ccc2c(c1)CCC2	5%	-11%
CN(C)c1nc(OCc2ccccc2)c2ncc(=O)[nH]c2n1	-14%	1%
CC1(C(=O)Nc2cnc3ccccc3c2)CCN1C(=O)c1ccccc1CCc1ccccc1 (stereo not drawn)	-22%	-6%[18.4 µM]
C[C@H]1CN(c2ccccc2)C(=O)[C@@H]1CC(=O)Nc1ccc(Br)cc1	-17%	5%
O=C(c1ccccc1)c1ccc(C(=O)O)c(C(=O)O)c1	-14%	10%
CC(C)C[C@H]1CN([C@@H](Cc2ccc(O)cc2)CN2CCC[C@@H]2CN2C(=S)NC[C@@H]2Cc2ccccc2)C(=S)N1CC1CCCCC1	0%	12%
CC1NC(=O)c2cccnc2-n2c1nc1cc(F)ccc1c2=O (stereo not drawn)	0%	2%
COc1ccc(CN(C)C(=O)C2CSC3(C)CCC(=O)N23)c(OC)c1 (stereo not drawn)	-15%	-8%
CCc1ccc(/C=C2\SC(=S)N(CCCC(=O)N(CCO)c3ccccc3)C2=O)cc1	?	12%
COC(=O)C[C@@H]1CC[C@@H](NC(=O)Nc2cc(F)ccc2F)[C@@H](CO)O1	-14%	13%
COCCNC(=O)c1cccc2c(-c3cccc(C(N)=O)c3)coc12	13%	-1%
Cc1ccc(NC(=O)c2ccc(S(=O)(=O)N3CC(C)CC(C)C3)cc2)cc1S(=O)(=O)N1CCOCC1 (stereo not drawn)	?	0%
COc1ccc(C(O)c2nc(-c3cccc(C(C)C)c3)cs2)cc1 (stereo not drawn)	-9%	-6%[18.4 µM]
COCCN(C(=O)c1cc(-c2ccc(F)cc2)nc2ccccc12)c1c(N)n(CC(C)C)c(=O)[nH]c1=O	-9%	-4%
Cc1cccc(S(=O)(=O)N2C[C@@H](O)COC[C@@H]3O[C@H](CC(=O)NCCCN4CCOCC4)CC[C@H]32)c1	-16%	-5%
COC(=O)CCc1ccc(OCC(O)CNC(C)C)cc1 (stereo not drawn)	-11%	-9%[18.4 µM]
CCOC(=O)C1CCN(CCCSc2ccccc2)CC1	0%	-1%
O=C1NC(=O)C([N+](=O)[O-])=C(O)C1=O	0%	-1%
Cn1c(O)c(C=NCCCCCC(=O)O)c(=O)n(C)c1=O	-20%	-6%
COc1ccc(Cl)c(-c2cc(C(=O)NC(C)C)[nH]n2)c1	14%	11%
O=C1CC(SC(=S)C2CCCC2=O)C(=O)N1 (stereo not drawn)	-17%	-3%
O=C(c1ccncc1)N(c1ccc(N2CCOCC2)cc1)C(c1ccccc1)c1nc2ccccc2[nH]1 (stereo not drawn)	15%	?
CC(=O)c1cccc(NC(=O)C2Cc3c(-c4cccc(C(C)=O)c4)ccnc3O2)c1 (stereo not drawn)	22µM*	-3%[18.4 µM]
CCNC(=O)C[C@@H]1CC[C@@H]2NC[C@@H](O)COC[C@H]2O1	-14%	11%
O=C(COC(=O)c1ccc([N+](=O)[O-])o1)Nc1ccc2c(c1)OC(F)(F)O2	-12%	-12%
COc1ccccc1CNC(=O)Nc1nnc([C@H]2C[C@H](O)[C@@H](CO)O2)s1	-10%	36%[18.4 µM]
CCOC(=O)C1CCCN(C(=O)c2ccc(SC(F)(F)F)cc2)CC1 (stereo not drawn)	6%	-19%
O=C(Cc1cccc(NC(=O)C2CCCN(C(=O)C3CCCCC3)C2)c1)Nc1ccc(C(=O)N2CCOCC2)cc1 (stereo not drawn)	9%	-17%
CCN(CC)c1ccc(S(=O)(=O)N2CCCCC2)cc1NC(=O)CSCc1c(C)noc1C	-5%	-1%
OC[C@@H]1CN(Cc2ccncc2)C[C@H](n2cnc3c(N4CCN(c5ccccc5)CC4)ncnc32)O1	13µM*	-3%
CC(C)CCNC(=O)c1onc(CSc2ccccn2)c1C(=O)NCCC(C)C	-5%	14%
COc1ccc(-c2coc3c(C(=O)NCc4ccco4)cccc23)c(C)c1	0%	-6%
CCOC(=O)[C@]12Cc3c(cc(OC)c(OC)c3OC)[C@H]1N(Cc1ccccc1)C(=O)c1cc(F)c(F)cc12	-28%	?
CCOC1=C2[C@H]([C@H]3C(=O)N(c4ccccc4)C(=O)[C@H]3C1)[C@@H](C(C)C)N(S(=O)(=O)c1ccc(C)cc1)[C@H]2c1ccccc1	-8%	8%
OC[C@@H]1CN(Cc2ccco2)C[C@H](n2cnc3c(N4CCN(c5ccccc5)CC4)ncnc32)O1	?	-10%
O=S1(=O)N[C@@H](Cc2ccccc2)COc2cccc(N3CCN(Cc4ccccc4F)CC3)c21	?	-19%
O=Cc1cc(OCc2ccccc2)ccc1[B-](F)(F)F	0%	-26%
CC(=O)Nc1cc(-c2ccc(N(C)C)cc2)cn2c(-c3ccc(F)c(Cl)c3)cnc12	-9%	9%[18.4 µM]
OC1c2c(F)cccc2N=C2CCCCCN21 (stereo not drawn)	-8%	2%
CNc1ncnc2c1ncn2[C@H]1CN(Cc2ccncc2)C[C@@H](CO)O1	-10%	6%
COC(=O)c1ccccc1N=NNc1ccc([N+](=O)[O-])cc1	26%	2%
CCCCc1c(-c2ccccc2OC)ncn1CCc1ccc(OC)cc1	22µM*	-30%
CCC(C)[C@H]1CNC(=O)C(=O)N1CC(C)(C)C (stereo partly drawn)	-19%	2%
CC(C)c1ccc(NC(=O)Nc2nc(C(N)CCc3ccccc3)cs2)cc1 (stereo not drawn)	-22%	-13%[18.4 µM]
Carrying on:
SMILES	2A StopGo	RE007 growth inh
CCN(CC)C(=O)c1cccc(-c2csc(C(O)c3ccc(F)cc3)n2)c1 (stereo not drawn)	-15%	2%
COc1cc2sc3ccc(C#Cc4ccc(N)cc4)cc3c(=O)c2cc1OC	-12%	8%
COc1ccc(-c2csc(C(C)(O)c3cccc(OC)c3)n2)cc1 (stereo not drawn)	?	34%
COc1ccc(C(=O)N2C=Cc3ccccc3C2C#N)cc1 (stereo not drawn)	-7%	8%
O=C(Cn1cc(COc2ccc(Cl)c(Cl)c2)nn1)NS(=O)(=O)c1ccccc1OC(F)(F)F	-8%	11%
CSCCNC(=O)C1(C)CCN1C(=O)c1sccc1C (stereo not drawn)	-9%	0%[18.4 µM]
CCCCN(C)C(=O)c1ccc(Nc2nc(C(N)COCc3ccccc3)cs2)nc1 (stereo not drawn)	-10%	6%[18.4 µM]
O=C(NNC(=O)c1ccco1)c1ccco1	0%	13%
COc1ccc(-c2ccc3c(c2)C2CC3CCN2CCC#N)cc1 (stereo not drawn)	?	-4%
CCOC(=O)C1=CCN(S(=O)(=O)c2ccccc2C)C1c1cccc(Cl)c1 (stereo not drawn)	-10%	11%
CCc1ccc(N2C=C(C(=O)OC)C(c3ccc(OC)cc3)C(C#N)=C2N)cc1 (stereo not drawn)	?	12%
CC(=O)Nc1ccc(N2CCOCC2)c(S(=O)(=O)Nc2ccccc2Cl)c1	52%[activator]	-5%
Cc1nc2ccccc2c(=O)n1-c1c(Cl)cccc1Cl	-22%	6%
COc1ccc(CN2Cc3cc(-c4ccccc4)ccc3-n3nncc3C2)cc1	-13%	-27%
COc1ccccc1N1CCN(C(=S)NC(=O)c2ccc([N+](=O)[O-])cc2)CC1	-21%	-9%
CC(C)(C)c1ccc(CC(=O)N2CCC2(C)C(=O)NS(=O)(=O)c2cccc(C#N)c2)cc1 (stereo not drawn)	0%	9%
Cc1nc2cc(OC(=O)N(C)Cc3cccc(-c4ccncc4)c3)ccc2s1	28µM*	3%
CCOC(=O)C[C@H]1c2ccccc2S(=O)(=O)N1Cc1cccc(C(F)(F)F)c1	-16%	10%
C[C@@H]1CN([C@@H](C)CO)C(=O)c2c(c3ccccc3n2C)-c2ccccc2CO[C@H]1CN(C)C(=O)C1CC1	-19%	31%
CC1(C(=O)Nc2ccc3c(c2)OCCO3)CSCC(=O)N1CCOc1ccccc1 (stereo not drawn)	-2%	-5%
Cc1onc(-c2ccccc2)c1C(=O)OCC(=O)c1ccc[nH]1	?	5%
CC1(C(=O)NCc2cccc3ccccc23)CCN1C(=O)Cc1ccc(-c2ccccc2)cc1 (stereo not drawn)	?	15%
Cc1ccccc1CSCC1Nc2ccc(C(=O)NCCc3ccccc3)cc2NC1=O (stereo not drawn)	-19%	32µM*
CC(C)(C)NC(=O)C(c1ccnc2ccccc12)n1c(=O)c(-c2ccco2)nc2ccccc21 (stereo not drawn)	-11%	-5%
COC(=O)[C@]12CCCCC=C1N(Cc1cccc3ccccc13)C(=O)[C@H](CC(=O)N1CCCCC1)C2	-2%	-1%
CCOC(=O)[C@]12Cc3cc(OC)ccc3[C@H]1N(CCC(=O)OC)C(=O)c1cc(OC)ccc12	20µM*	3%
Cc1cc(NC(=O)CS(=O)(=O)c2cn(Cc3cccc(C(F)(F)F)c3)c3ccccc23)no1	-25%	1%
